# Rango dissoc inh: qHTS Assay for Inhibitors of RanGTP induced Rango (Ran-regulated importin-beta cargo) - Importin beta complex dissociation | Snurportin-1 (Homo sapiens) + GTP-binding nuclear protein Ran (Homo sapiens) + Importin … | AID 540253, 2011 | Biochemical FRET Rango-importin beta, RanGTP-induced dissociation | 0.071% of 340,000 active | Potency, µM (titrated, usually from 46.1 µM), inactives show top-dose activity change, negative = inhibition; active means falling FRET ratio curve, often poorly fitted, with flat reads before Ran was added; inconclusive means other falling curves, or compound fluorescence or quenching; inactive means flat or rising ratio curve;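 further: potency means the concentration at half of the fitted maximal effect; % of control where 0% means no effect; nearly all actives have a fitted effect of over 45% in size; -100% = wells without RanGTP and RCC1; the record marks most hits as doubtful in a second field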
#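 Two FRET readings bracket the reaction: one 5 min after compound meets Rango–importin beta, another 45 min after RanGTP-RCC1 (0.6 uM Ran, 0.2 uM RCC1, 2 mM GTP) is added. Only the second defines inhibition.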
# miR-21 reporter: qHTS Assay for Modulators of miRNAs and/orActivators of miR-21 | HeLa miR-21 FLuc reporter, luciferase, 48 h | Potency, µM (titrated, usually from 38.3 µM), for the others: top-dose reporter change, positive = more light | 340,000 tested, under 10 active; active = well fitted rising curve with a large enough effect; inconclusive = small, poorly fitted or top-dose-only effect; inactive = no such curve, though single readings can be large or run the other way;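 further: % of control where 0% means no effect; miR-21 action dims this reporter so a rising signal means less miR-21 action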
#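 HeLa miR-21-FLuc reporter line, endogenous miR-21; 2000 cells/well in DMEM/10% FBS; compound titration up to ~40uM final, 48 h, 37 degree Celsius; luciferase detection reagent, 15 min lysis, CCD luminescence.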
# GLA inh pH 4.5: qHTS Assay for Inhibitors of Human alpha-Galactosidase at pH 4.5; Alpha-galactosidase A (Homo sapiens), P06280; purified enzyme, 4-MU-alpha-Gal fluorescence, pH 4.5; activity change, negative = inhibition, % at 105 µM; 230,000 tested, under 10 active; inconclusive = small, poorly fitted or top-dose-only inhibition, or a rising curve; inactive = flat fitted curve, though single readings scatter; no compound was filed as active;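 further: 0% = full activity with enzyme and -100% = basal without enzyme; dose as in the result columns while the protocol names 77 µM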
# Rango-impB inh: qHTS Assay for Inhibitors of Rango (Ran-regulated importin-beta cargo) - Importin beta complex formation; Importin subunit beta-1 (Homo sapiens), Q14974; Rango CFP/YFP FRET sensor + importin beta, 45 min; Potency, µM (doses to about 92.2 µM), inactives show at the highest dose inhibition of complex formation; 0.031% of 340,000 active; active = rising FRET ratio curve, often small or poorly fitted; inconclusive = mostly compound fluorescence or quenching in the first reads; inactive = flat curves in all reads;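 further: potency means the concentration at half of the fitted maximal effect; 0% = DMSO wells and 100% = buffer wells lacking importin beta; nearly all actives have a fitted effect of over 15% in size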
# Target sequence (Q14974 whole entry, looked up): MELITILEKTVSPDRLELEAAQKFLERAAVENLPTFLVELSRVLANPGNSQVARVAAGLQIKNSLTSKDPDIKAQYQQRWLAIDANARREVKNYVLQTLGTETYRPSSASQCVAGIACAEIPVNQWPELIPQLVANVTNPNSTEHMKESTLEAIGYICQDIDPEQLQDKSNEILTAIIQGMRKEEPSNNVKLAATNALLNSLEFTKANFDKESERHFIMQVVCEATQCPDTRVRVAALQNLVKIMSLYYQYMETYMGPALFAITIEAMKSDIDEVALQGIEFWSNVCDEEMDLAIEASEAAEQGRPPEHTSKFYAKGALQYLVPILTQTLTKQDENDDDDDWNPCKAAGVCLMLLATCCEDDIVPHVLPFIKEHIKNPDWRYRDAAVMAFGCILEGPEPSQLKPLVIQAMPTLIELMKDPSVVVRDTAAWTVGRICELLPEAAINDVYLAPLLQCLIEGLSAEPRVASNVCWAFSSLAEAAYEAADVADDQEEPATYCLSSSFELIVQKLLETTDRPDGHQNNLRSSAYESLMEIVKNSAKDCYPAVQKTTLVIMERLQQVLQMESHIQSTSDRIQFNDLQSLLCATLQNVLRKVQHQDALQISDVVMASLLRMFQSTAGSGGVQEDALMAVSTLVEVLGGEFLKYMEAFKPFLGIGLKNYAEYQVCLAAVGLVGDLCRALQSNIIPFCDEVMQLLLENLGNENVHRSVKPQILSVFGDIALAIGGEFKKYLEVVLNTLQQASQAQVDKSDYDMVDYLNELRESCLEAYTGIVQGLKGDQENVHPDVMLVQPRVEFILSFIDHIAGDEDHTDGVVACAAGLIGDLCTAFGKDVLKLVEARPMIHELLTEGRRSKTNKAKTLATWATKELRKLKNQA
#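 Inhibition scored from the CFP 486 nm/YFP 530 nm FRET ratio 45 min after adding 0.125 microM importin beta to 50 nM Rango biosensor preincubated 5 min with compound (room temperature, PBS with DTT, Tween-20, BSA). No-importin wells as positive control.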
# An asterisk follows results filed as active; ? = inconclusive; nt = not tested or not shown. Not all compounds are listed; count on the stated rates, not on these rows.
Rango dissoc inh	miR-21 reporter	GLA inh pH 4.5	Rango-impB inh	smiles
2%	-2%	0	-2.0%	O=C1COc2ccc(NC(=O)N3CCN(c4ccc(F)cc4)CC3)cc2N1
0%	-5%	nt	-0.2%	CCn1cc(S(=O)(=O)NCc2ccc3c(c2)OCO3)cn1
1%	nt	nt	3.9%	O=c1[nH]c(=O)n(C2CC(O)C(CO)O2)cc1I (configuration not stated)
-5%	-4%	nt	-0.9%	CCc1cc2c(=O)c(-c3nc4ccccc4n3C)coc2c(CN2CCN(C)CC2)c1O
2%	0%	5	?	Fc1ccc2[nH]c3c(NCCN4CCOCC4)ncnc3c2c1
-6%	-7%	nt	-2.7%	CCN(CC)S(=O)(=O)c1ccc(-c2cn3cc(Cl)ccc3n2)cc1
-11%	7%	nt	-1.9%	NC(=O)c1nsc(C(=O)N(c2ccc(F)cc2)C(C(=O)NCC2CCCO2)c2ccc3ncccc3c2)c1N (configuration not stated)
-4%	-3%	5	-5.8%	Cc1ccc(S(=O)(=O)N2CCN(C(=O)CSc3nc4ccccc4o3)C2)cc1
9%	-5%	0	4.6%	CCOCCOC(=O)C1=C(C)N(C)C(=O)NC1c1ccccc1F (configuration not stated)
2%	-2%	6	0.0%	O=C(CC1c2ccccc2Oc2ccccc21)Nc1ccccc1C(F)(F)F
-6%	0%	nt	0.0%	NS(=O)(=O)c1ccc(NC(=O)/C(=C/c2ccncc2)NC(=O)c2ccccc2)cc1
?	-3%	-12	?	C=CCn1c(COc2ccc(CC)cc2)nnc1SC/C(O)=C(\C#N)c1nc2ccccc2[nH]1
20%	0%	6	-1.9%	CCc1c(C)nc(SCC(=O)Nc2ccc(Br)cc2)[nH]c1=O
18%	nt	nt	0.1%	Cc1nn(-c2ccccc2)c(Cl)c1C(=O)NCC1CCCO1 (configuration not stated)
12%	-1%	5	-1.0%	COc1ccc(Cl)cc1NC(=S)Nc1cccnc1
?	-6%	-4	?	Cc1cc(C(=O)O)ccc1-c1ccc(/C=C2\NC(=O)N(Cc3ccccc3Cl)C2=O)o1
25%	-9%	0	-7.6%	COc1cccc(OC)c1Oc1ccc(C(F)(F)F)cn1
?	-4%	nt	2.8%	COC(=O)c1ccccc1CSc1nsc(/C=C/N(C)C)c1C#N
1%	-1%	18	1.3%	CCn1ncc([N+](=O)[O-])c1C(=O)N1CCCC1
-17%	nt	nt	?	COC(=O)C1=C(C)N(Cc2ccccc2)C(=NCc2ccco2)N[C@H]1c1cccc(F)c1
-28%	-7%	1	2.3%	O=c1c(-c2ccc(F)cc2)[n+]([O-])c2ccccc2n1OCc1ccccn1
3%	-4%	-22	-0.1%	COC(=O)c1scc(C)c1NC(=O)C1CCCCC1
-9%	-2%	-1	2.3%	CCOC(=O)Cc1csc(NC(=O)c2cccc(OC)c2)n1
-23%	nt	nt	-2.6%	COc1ccc(C(=O)COC(=O)CCN=C2NS(=O)(=O)c3ccccc32)c(OC)c1
7%	?	nt	-1.8%	CC(=O)c1cccc(NS(=O)(=O)c2cc3c(cc2C)N(C(C)=O)CCO3)c1
14%	10%	5	-0.5%	CCOc1ccc(CN2CCN(C(=O)c3ccccc3)CC2)cc1
-13%	nt	nt	-1.1%	CCn1c(CCC(N)=O)nnc1SCC(=O)c1cc(C)n(C2CC2)c1C
14%	nt	nt	-3.9%	COc1ccc(C(=O)Nc2ccc(Cl)c(S(=O)(=O)N3CCOCC3)c2)cc1
-15%	-5%	-4	-1.8%	Cc1ccc(C(C(=O)NC2CCCC2)N2CCCCC2)cc1 (configuration not stated)
32%	-52%	6	-4.8%	CC(/C=C/c1ccccc1)=N\NC(=S)NC(C)C
13%	-1%	2	-3.7%	CCN(C(=O)COC(=O)c1cc(S(=O)(=O)N2CCc3ccccc32)ccc1OC)C1CCS(=O)(=O)C1 (configuration not stated)
-6%	nt	nt	5.0%	Cc1cc(SCC(=O)NCC(c2cccs2)N2CCOCC2)c(C)cc1Br (configuration not stated)
-4%	4%	-4	?	CCCC1C(c2ccc(OC)cc2)C(C#N)(C#N)C2(C#N)CC1(N)NC2=O (configuration not stated)
0%	1%	-2	-2.1%	C=CCCCCCCCCc1nc(SCC(=O)O)n[nH]1
-1%	-3%	-7	-3.0%	COc1cccc(C2C(C(=O)c3sc(C)nc3C)=C(O)C(=O)N2CCN2CCOCC2)c1 (configuration not stated)
2%	-20%	4	4.5%	Cn1c(CS/C(N)=N/N=C/c2ccccc2)c(Br)c(=O)n1-c1ccccc1
?	0%	nt	?	COc1ccc(-c2cc(C(F)(F)F)c3c(N)c(C(=O)NCCSC)sc3n2)cc1
-5%	nt	nt	-1.1%	O=C(Nc1ccccc1)C1=C[C@@H](c2ccc(C(F)(F)F)cc2)C[C@@H](OCCCCO)O1
12%	-1%	-4	-0.1%	O=C(Nc1ccc(F)cc1)Nc1ccc(NC(=O)c2ccccc2O)cc1
0%	nt	nt	3.3%	Cc1ccc2c(Cl)c(C)c(N3CCOCC3)nc2n1
4%	nt	nt	-0.8%	Cc1ccc(N(Cc2ccccc2)C(=O)c2cccc(S(=O)(=O)N3CC(C)OC(C)C3)c2)cc1 (configuration not stated)
9%	0%	nt	-0.8%	CC(=O)N[C@@H](Cc1c[nH]c2ccccc12)C(=O)NC1CC1
-9%	-9%	-8	-5.6%	COc1ccc(C(O)Cc2nc3ccccc3n2C)cc1OC (configuration not stated)
4%	16%	8	5.9%	CCCCOc1ccccc1C1CC(=O)NC2=C1C(=O)CCC2 (configuration not stated)
-9%	-2%	5	2.8%	CCOC1(C(F)(F)F)NC(=O)N(Cc2ccc(OC)cc2)C1=O (configuration not stated)
nt	8%	-4	nt	COc1cc(C2CC(=O)N3CN(c4ccccc4C)CSC3=C2C#N)cc(OC)c1OC (configuration not stated)
-10%	-13%	9	3.1%	CN1CCN(NC(=O)c2cn(-c3ccccc3)nc2-c2cccc(Br)c2)CC1
-10%	-1%	8	0.9%	COc1ccc2cc3cc(C(=O)N4CCN(Cc5ccc6c(c5)OCO6)CC4)oc3nc2c1
-1%	-1%	-4	2.2%	COC(=O)c1cnc(NNC(=O)c2ccc([N+](=O)[O-])cc2)nc1C(F)(F)F
nt	23%	-28	nt	COc1ccc(C([O-])=Nc2ccc[n+](-c3nc4ccccc4nc3NS(=O)(=O)c3ccccc3)c2)cc1
1%	nt	nt	6.0%	CC1(C)Cc2c(c(N3CCOCC3)nc3sc4c(NCCN)ncnc4c23)CO1
-1%	nt	nt	0.0%	CCOc1ccc(NC(=O)CCN2C(=O)CSc3ccccc32)cc1
9%	-20%	-4	1.2%	Cc1cc(N2CCN(S(=O)(=O)c3ccc4ccccc4c3)CC2)n2ncnc2n1
3%	0%	4	4.8%	Cc1nc2nc(-c3ccccc3)cc(=O)n2[nH]1
15%	6%	-12	-0.9%	Cc1ccccc1CN(C)CC(=O)Nc1c(C)cccc1C(C)C
18%	-18%	nt	-2.0%	O=C(Nc1nnc(S(=O)(=O)N2CCCC2)s1)c1cccc([N+](=O)[O-])c1
21%	2%	nt	0.1%	CCCCNS(=O)(=O)c1ccc2nc(-c3cccnc3)cc(C(=O)NCC(OC)OC)c2c1
-12%	0%	-1	-2.0%	S=C(Nc1ccc(Cl)cc1)Nc1cccc2cnccc12
4%	-9%	-10	0.3%	N=c1c2c3c(sc2ncn1Cc1ccccc1)CCCC3
0%	-10%	2	2.7%	CCOC(=O)c1oc2nc(C(C)C)c3c(c2c1N)CCC3

# New compounds follow.
Rango dissoc inh	miR-21 reporter	GLA inh pH 4.5	Rango-impB inh	smiles
25%	-2%	nt	-1.7%	COc1ccc(S(=O)(=O)N2CCC(C(=O)N[C@@H](C)C(=O)N3CCCCCC3)CC2)cc1
-1%	18%	-10	0.8%	Cc1ccccc1Nc1cc(C(=O)NCc2ccco2)c2ccccc2n1
9%	-4%	-5	2.9%	Cc1ccc(C)c(-n2c(SCC(=O)NC(C(=O)O)C(C)C)nnc2-c2cccc(Cl)c2)c1 (configuration not stated)
1%	-9%	-13	-1.1%	O=C(Nc1cccc(F)c1)c1cccnc1NCCc1ccccc1
5%	-35%	7	0.0%	C/C(=C\C(=O)Nc1nccs1)c1ccccc1
2%	-26%	2	-1.6%	C1=C(c2ccccc2)Nc2ccccc2N=C1c1ccccc1
?	-10%	nt	-4.0%	CCS(=O)(=O)N1CCN=C1SCc1ccc(F)cc1
12%	-3%	-6	1.0%	Cc1cccc(NC(=O)c2c(C)cc(=O)oc2C)n1
15%	-15%	-4	2.6%	CCOc1ccc(N(C(=O)CNS(=O)(=O)c2ccccc2)C(CC)C(=O)NCc2ccco2)cc1 (configuration not stated)
-10%	-12%	-13	-2.5%	N#Cc1ccc(Sc2ccccn2)c([N+](=O)[O-])c1
-11%	-5%	-5	-2.6%	O=C(COc1ccc2c(c1)CCC2)NCc1ccc(Cl)cc1
1%	nt	nt	-0.1%	CCCCn1c(N)c(N(CC(C)C)C(=O)c2ccco2)c(=O)[nH]c1=O
-10%	nt	nt	2.8%	Cc1cccc2cc(C#N)c(SCCN3CCCCC3)nc12
-2%	-2%	-7	1.9%	CCOC(=O)N1CCC(Nc2c(NCCCN3CCN(c4ccc(OC)cc4)CC3)c(=O)c2=O)CC1
0%	5%	6	?	O=C1Nc2ccccc2C12OC1CCCCC1O2 (configuration not stated)
-19%	-1%	nt	?	Cc1cc(=O)oc2c(CN3CCN(CCO)CC3)c(O)ccc12
10%	-54%	nt	21µM*	Cc1cccc(Cc2nnc(CCC(=O)N(C)CCc3ccccc3)o2)c1
9%	1%	nt	6.8%	Cc1c(C(c2ccccc2Br)c2c(C)n(C)n(-c3ccccc3)c2=O)c(=O)n(-c2ccccc2)n1C
-10%	7%	-14	-0.9%	Fc1ccc(C2C3=C(Nc4ncnn42)c2ccccc2OC3c2ccncc2)cc1 (configuration not stated)
-11%	-2%	0	2.6%	CC(NC(=O)C1C2C=CC(C2)C1C(=O)O)c1ccccc1 (configuration not stated)
10%	-4%	5	1.0%	COC(=O)[C@H](CC(C)C)NC(=O)NC1CCCCC1C (some centres not stated)
-9%	-4%	nt	-3.4%	Cc1cc(-c2ccc(C)c(S(=O)(=O)NCCN3CCC(C)CC3)c2)on1
-8%	nt	nt	-3.4%	OCC[C@@H]1C[C@H](O)[C@@H](O)[C@]2(CCCCO2)O1
3%	-5%	-6	1.2%	CN(C)CCNC(=O)/C=C/c1cn(-c2ccccc2)nc1-c1cc2ccccc2oc1=O
38%	-1%	-4	-0.1%	CSCC[C@H](NC(=O)CCNC(C)=O)c1nc2ccccc2[nH]1
2%	2%	0	0.2%	Cc1ccc(C)c(N2CN(CCC3=CCCCC3)CNC2=S)c1
10%	-1%	nt	0.4%	CCOc1ccc(NC(=O)CNC(=O)c2nn(-c3ccc(OC)c(OC)c3)c(=O)c3ccccc23)cc1
-31%	-3%	-8	?	Cc1ccc2nc(N/N=C/c3ccccc3F)nc(-c3ccccc3)c2c1
?	0%	9	?	Cc1c(Cl)c(=O)n2c(=O)c(Cl)c(C)n12
-1%	-7%	nt	-1.1%	COc1ccc(OC)c(NC(=O)CSc2ccc(-c3ccco3)nn2)c1

# Record cards, from the list above:
# O=C1COc2ccc(NC(=O)N3CCN(c4ccc(F)cc4)CC3)cc2N1 is listed with Rango dissoc inh: 2%; miR-21 reporter: -2%; GLA inh pH 4.5: 0; Rango-impB inh: -2.0%
# CCCCOc1ccccc1C1CC(=O)NC2=C1C(=O)CCC2 (configuration not stated) is listed with Rango dissoc inh: 4%; miR-21 reporter: 16%; GLA inh pH 4.5: 8; Rango-impB inh: 5.9%
# COc1ccc(C([O-])=Nc2ccc[n+](-c3nc4ccccc4nc3NS(=O)(=O)c3ccccc3)c2)cc1 is listed with Rango dissoc inh: nt; miR-21 reporter: 23%; GLA inh pH 4.5: -28; Rango-impB inh: nt
